Yeast UUG start = modulators of start codon recognition fidelity in yeast. S. cerevisiae UUG-firefly luciferase reporter, luminescence/redox ratio. activity score, % at 18.7 µM. hit rate 0.13% among 350,000;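 active means replicate mean at a twofold rise or more, about +100% in these data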;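 further: firefly luciferase made from a UUG start codon reports start codon fidelity; reporter light over untreated wells divided by growth signal over untreated wells; some hits fall short of that in this replicate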
Env fusion inh = inhibitors of HIV Env-mediated cell fusion. HeLa-JRFL Env/CEM21 cell fusion, luciferase. inhibition, % at 12.3 µM. hit rate 1.1% among 360,000;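 active means mean replicate inhibition score of at least 50 and every replicate individually at or above 50; inconclusive means only one of the two criteria met; inactive means mean below 50 and not all replicates reaching 50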;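 further: 0% = plate neutral controls and 100% = maraviroc near 300 nM; one replicate is shown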
Active calls of the source: *; ? = inconclusive; [ ] = dose if it differs, or a comment. Only part of the results is shown; rates above refer to the full screens.

Yeast UUG start	Env fusion inh	Molecule
13	17[16.7 µM]	COc1ccc(NC(=O)N(C)C[C@H]2Oc3ccc(NC(=O)Nc4ccccc4)cc3CC(=O)N([C@H](C)CO)C[C@H]2C)cc1
11	2[16.7 µM]	N#C[C@@H]1[C@@H](c2ccc(C3=CCCCC3)cc2)[C@@H](CO)N1C(=O)c1ccccn1
1	-18[16.7 µM]	C[C@@H]1CN([C@@H](C)CO)C(=O)c2cc(C#Cc3ccccn3)cnc2O[C@@H]1CN(C)C(=O)c1cnccn1
-3	10[16.7 µM]	COCC#Cc1cnc2c(c1)C(=O)N([C@H](C)CO)C[C@@H](C)[C@H](CN(C)C(=O)c1ccc(F)cc1)O2
10	-5[16.7 µM]	C[C@@H]1CCCCO[C@@H](CN(C)CC2CC2)[C@H](C)CN([C@@H](C)CO)C(=O)c2cc(NC(=O)c3ccncc3)ccc2O1
-15	35[16.7 µM]	C[C@@H]1CN([C@H](C)CO)S(=O)(=O)c2ccc(-c3cccc(F)c3)cc2O[C@H]1CN(C)S(=O)(=O)c1ccccc1
17	-7[16.7 µM]	Cc1ccc(S(=O)(=O)NCC[C@@H]2CC[C@H](NS(=O)(=O)c3ccccc3Cl)[C@H](CO)O2)cc1
-10	-4[16.7 µM]	CO[C@H]1CN(C)C(=O)c2cc(NC(=O)C3CCC3)ccc2OC[C@H](C)N(Cc2ccncc2)C[C@H]1C
-6	-20[16.7 µM]	CO[C@@H]1CN(C)C(=O)c2cc(NC(C)=O)ccc2OC[C@H](C)N(Cc2ccccc2C(=O)O)C[C@H]1C
-7	21[16.7 µM]	COc1ccccc1C#Cc1ccc2c(c1)O[C@H](CN(C)Cc1ccccc1)[C@H](C)CN([C@H](C)CO)S2(=O)=O
-3	2[16.7 µM]	C[C@@H]1CN([C@H](C)CO)S(=O)(=O)c2ccc(C3=CCCC3)cc2O[C@@H]1CN(C)CC1CC1
-9	-30[16.7 µM]	CC(C)NC(=O)N(C)C[C@H]1OCCCC[C@H](C)Oc2ccc(NS(=O)(=O)c3ccc(Cl)cc3)cc2C(=O)N([C@@H](C)CO)C[C@H]1C
9	-80[16.7 µM]	C[C@@H]1CCCCO[C@@H](CN(C)C(=O)NC2CCCCC2)[C@H](C)CN([C@H](C)CO)C(=O)c2cc(NS(=O)(=O)c3ccc(Cl)cc3)ccc2O1
-10	-6[16.7 µM]	N#C[C@H]1[C@@H](c2ccc(-c3ccncc3)cc2)[C@@H](CO)N1C(=O)C1CC1
4	11[16.7 µM]	O=C(NCC[C@@H]1CC[C@H](NC(=O)c2ccncc2)[C@@H](CO)O1)Nc1ccc(Cl)cc1
-3	-3[16.7 µM]	O=C(Nc1ccc2c(c1)[C@H]1C[C@H](CC(=O)N3CCc4ccccc4C3)O[C@@H](CO)[C@H]1O2)C1CCC1
-9	-14[16.7 µM]	O=C(C[C@H]1C[C@@H]2c3cc(NS(=O)(=O)c4ccc(F)cc4)ccc3O[C@@H]2[C@@H](CO)O1)N1CCOCC1
16	-16[16.7 µM]	Cc1noc(C)c1NC(=O)N(C)C[C@H]1Oc2c(NC(=O)NC3CCCCC3)cccc2C(=O)N([C@H](C)CO)C[C@H]1C
2	63*[16.7 µM]	C[C@H]1CN([C@@H](C)CO)S(=O)(=O)c2ccc(Br)cc2O[C@H]1CN(C)S(=O)(=O)c1ccc(F)cc1
-5	10[16.7 µM]	COc1ccc(S(=O)(=O)N(C)C[C@@H]2Oc3ccc(NS(=O)(=O)c4ccc(Cl)cc4)cc3CC(=O)N([C@H](C)CO)C[C@H]2C)cc1

Look-ups from above.
`CC(C)NC(=O)N(C)C[C@H]1OCCCC[C@H](C)Oc2ccc(NS(=O)(=O)c3ccc(Cl)cc3)cc2C(=O)N([C@@H](C)CO)C[C@H]1C` | Yeast UUG start = -9
`O=C(Nc1ccc2c(c1)[C@H]1C[C@H](CC(=O)N3CCc4ccccc4C3)O[C@@H](CO)[C@H]1O2)C1CCC1` | Env fusion inh = -3[16.7 µM]

The results go on:
Yeast UUG start	Env fusion inh	Molecule
17	8[16.7 µM]	COc1ccc(NC(=O)N[C@@H]2CC[C@H](CCNS(=O)(=O)c3ccccc3F)O[C@@H]2CO)cc1
29	12[16.7 µM]	C[C@H]1CCCCO[C@H](CN(C)Cc2ccc3c(c2)OCO3)[C@@H](C)CN([C@@H](C)CO)C(=O)c2cc(NC(=O)Cc3ccccc3)ccc2O1
-6	-5[16.7 µM]	C[C@H]1CN([C@@H](C)CO)C(=O)c2cc(-c3cccc(F)c3)cnc2O[C@H]1CN(C)C
-1	1[16.7 µM]	C[C@@H]1CN([C@H](C)CO)C(=O)c2cc(NC(=O)Nc3ccccc3)ccc2O[C@H]1CN(C)Cc1ccccc1
1	3[16.7 µM]	C[C@H](O)C#Cc1ccc2c(c1)O[C@H](CN(C)Cc1ccccc1)[C@@H](C)CN([C@H](C)CO)S2(=O)=O
-1	-1[16.7 µM]	C[C@@H]1CCCCO[C@@H](CN(C)CC2CCCCC2)[C@@H](C)CN([C@H](C)CO)C(=O)c2cc(NC(=O)CCC(F)(F)F)ccc2O1
-19	-10[16.7 µM]	Cc1noc(C)c1S(=O)(=O)Nc1ccc2c(c1)CC(=O)N([C@H](C)CO)C[C@H](C)[C@H](CN(C)Cc1ccc3c(c1)OCO3)O2
-5	12[16.7 µM]	Cc1ccc(S(=O)(=O)N[C@@H]2CC[C@H](CCn3cc(-c4cccc(F)c4)nn3)O[C@@H]2CO)cc1
-1	13[16.7 µM]	CS(=O)(=O)N1[C@H](C#N)[C@@H](c2ccc(C#CC3CC3)cc2)[C@H]1CO
12	-3[16.7 µM]	CCCNC(=O)N(C)C[C@H]1Oc2ncc(C#CC(C)C)cc2C(=O)N([C@@H](C)CO)C[C@H]1C
-3	0[16.7 µM]	C[C@H]1CN([C@@H](C)CO)C(=O)Cc2cc(NC(=O)Nc3ccc4c(c3)OCO4)ccc2O[C@@H]1CN(C)Cc1ccc2c(c1)OCO2
-1	11[16.7 µM]	C[C@@H]1CN([C@@H](C)CO)C(=O)c2cc(C#Cc3ccccc3)cnc2O[C@@H]1CN(C)C(=O)c1ccccn1
6	19[16.7 µM]	CC(C)NC(=O)Nc1ccc2c(c1)C(=O)N(C)[C@H]1CC[C@@H](CC(=O)NCC(F)(F)F)O[C@H]1CO2
7	-15[16.7 µM]	Cc1cc(C(=O)Nc2cccc3c2O[C@H](CN(C)CC2CCCCC2)[C@H](C)CN([C@H](C)CO)C3=O)n(C)n1
-17	-7[16.7 µM]	C[C@H]1CN([C@@H](C)CO)C(=O)c2cc(Br)cnc2O[C@H]1CN(C)Cc1ccccn1
2	-2[16.7 µM]	CCNC(=O)C[C@H]1C=C[C@H](NC(=O)NC2CCCCC2)[C@@H](CO)O1
-12	11[16.7 µM]	Cc1ccc(S(=O)(=O)N(C)C[C@@H]2OCCCC[C@@H](C)Oc3ccc(NC(=O)NC4CCCCC4)cc3C(=O)N([C@H](C)CO)C[C@H]2C)cc1
-1	-7[16.7 µM]	Cc1noc(C)c1NC(=O)Nc1cccc2c1O[C@H](CN(C)C(=O)Nc1ccc(C(F)(F)F)cc1)[C@H](C)CN([C@H](C)CO)C2=O
-5	0[16.7 µM]	C[C@H](CO)N1C[C@H](C)[C@@H](CN(C)S(=O)(=O)c2cccs2)OCCCC[C@H](C)Oc2ccc(NS(=O)(=O)c3ccccc3)cc2C1=O
9	9[16.7 µM]	CCC(=O)N(C)C[C@@H]1Oc2cc(-c3cccc(C#N)c3)ccc2S(=O)(=O)N([C@@H](C)CO)C[C@H]1C
-10	0[16.7 µM]	C[C@H]1CN([C@@H](C)CO)C(=O)c2cc(C#Cc3cccc(F)c3)cnc2O[C@H]1CN(C)Cc1ccccn1
24	-1[16.7 µM]	O=C(C[C@@H]1C[C@@H]2c3cc(NC(=O)C4CCOCC4)ccc3O[C@@H]2[C@@H](CO)O1)NCc1cccc(F)c1
2	-6[16.7 µM]	CN(C)C(=O)C[C@H]1C=C[C@H](NC(=O)NC2CCCC2)[C@H](CO)O1
6	-154[16.7 µM]	C[C@H](CO)N1C[C@H](C)[C@H](CN(C)C(=O)c2ccccc2)OCCCC[C@H](C)Oc2ccc(NS(=O)(=O)c3ccccc3)cc2C1=O
1	6[16.7 µM]	C[C@@H]1CN([C@@H](C)CO)C(=O)CCCn2nncc2CO[C@@H]1CN(C)C(=O)CCCN(C)C
-8	-22[16.7 µM]	O=C(CCN1CCCCC1)NCC[C@@H]1CC[C@H](NC(=O)C2CCOCC2)[C@H](CO)O1
22	-3[16.7 µM]	Cc1noc(C)c1S(=O)(=O)Nc1ccc2c(c1)CC(=O)N([C@@H](C)CO)C[C@H](C)[C@@H](CN(C)S(=O)(=O)c1c(C)noc1C)O2
-7	-15[16.7 µM]	Cc1noc(C)c1NC(=O)N(C)C[C@@H]1Oc2ccc(NS(=O)(=O)c3ccccc3)cc2C(=O)N([C@H](C)CO)C[C@@H]1C
29	-2[16.7 µM]	C[C@H](O)C#Cc1cnc2c(c1)C(=O)N([C@@H](C)CO)C[C@H](C)[C@@H](CN(C)C(=O)Nc1ccc(C(F)(F)F)cc1)O2
-4	?	C[C@H]1CCCCO[C@H](CN(C)C(=O)Nc2cccc3ccccc23)[C@@H](C)CN([C@@H](C)CO)C(=O)c2cc(NS(=O)(=O)c3cccs3)ccc2O1
-1	8[16.7 µM]	COCC#Cc1ccc2c(c1)O[C@H](CN(C)C(=O)Nc1ccc(OC)cc1)[C@@H](C)CN([C@H](C)CO)S2(=O)=O
-2	-7[16.7 µM]	C[C@@H]1CN([C@H](C)CO)C(=O)c2cc(C3=CCCC3)cnc2O[C@@H]1CN(C)C(=O)C1CCOCC1
-4	-10[16.7 µM]	O=C(NCC[C@@H]1CC[C@@H](NC(=O)c2ccc3c(c2)OCO3)[C@H](CO)O1)Nc1ccc(Cl)cc1
4	18[16.7 µM]	C[C@@H]1CN([C@@H](C)CO)C(=O)Cc2cc(NC(=O)Nc3ccc4c(c3)OCO4)ccc2O[C@H]1CN(C)C(=O)Nc1ccc(C(F)(F)F)cc1
30	1[16.7 µM]	C[C@H]1CCCCO[C@H](CN(C)Cc2ccncc2)[C@@H](C)CN([C@@H](C)CO)C(=O)c2cc(NS(=O)(=O)c3ccc(Cl)cc3)ccc2O1
0	-15[16.7 µM]	C[C@H]1CN([C@@H](C)CO)C(=O)Cc2cc(NC(=O)C3CC3)ccc2O[C@H]1CN(C)CC1CC1
1	-7[16.7 µM]	C[C@@H]1CCCCO[C@@H](CN(C)Cc2ccncc2)[C@@H](C)CN([C@@H](C)CO)C(=O)c2cc(NS(=O)(=O)c3cccs3)ccc2O1
0	16[16.7 µM]	C[C@@H]1CCCCO[C@@H](CN(C)S(=O)(=O)c2cccs2)[C@@H](C)CN([C@@H](C)CO)C(=O)c2cc(NC(=O)c3ccccc3)ccc2O1
-4	3[16.7 µM]	CCC(=O)N(C)C[C@@H]1Oc2ncc(-c3ccc(F)cc3)cc2C(=O)N([C@@H](C)CO)C[C@@H]1C
-3	-26[16.7 µM]	COc1cccc(NC(=O)N[C@@H]2C=C[C@H](CC(=O)N3CCOCC3)O[C@H]2CO)c1

Reprinted at random: five entries already listed, in no set order.
Yeast UUG start	Env fusion inh	Molecule
6	-154[16.7 µM]	C[C@H](CO)N1C[C@H](C)[C@H](CN(C)C(=O)c2ccccc2)OCCCC[C@H](C)Oc2ccc(NS(=O)(=O)c3ccccc3)cc2C1=O
0	-15[16.7 µM]	C[C@H]1CN([C@@H](C)CO)C(=O)Cc2cc(NC(=O)C3CC3)ccc2O[C@H]1CN(C)CC1CC1
1	-7[16.7 µM]	C[C@@H]1CCCCO[C@@H](CN(C)Cc2ccncc2)[C@@H](C)CN([C@@H](C)CO)C(=O)c2cc(NS(=O)(=O)c3cccs3)ccc2O1
-1	8[16.7 µM]	COCC#Cc1ccc2c(c1)O[C@H](CN(C)C(=O)Nc1ccc(OC)cc1)[C@@H](C)CN([C@H](C)CO)S2(=O)=O
-8	-22[16.7 µM]	O=C(CCN1CCCCC1)NCC[C@@H]1CC[C@H](NC(=O)C2CCOCC2)[C@H](CO)O1

(cont.)
Yeast UUG start	Env fusion inh	Molecule
-3	-4[16.7 µM]	C[C@@H]1CN([C@H](C)CO)C(=O)c2cc(NS(=O)(=O)c3ccc(F)cc3)ccc2O[C@@H]1CN(C)C(=O)Nc1ccc(C(F)(F)F)cc1
4	-13[16.7 µM]	COc1ccc(CN(C)C[C@H]2OCCCC[C@H](C)Oc3ccc(NS(=O)(=O)c4ccc(F)cc4)cc3C(=O)N([C@H](C)CO)C[C@H]2C)cc1
-3	14[16.7 µM]	COc1cccc(CNC(=O)C[C@@H]2CC[C@@H](NC(=O)C3CCC3)[C@@H](CO)O2)c1
9	1[16.7 µM]	C[C@H]1CN([C@@H](C)CO)C(=O)Cc2cc(NC(=O)CCN3CCOCC3)ccc2O[C@H]1CN(C)Cc1ccccc1
0	-6	CCOC(=O)C1=C(COC(=O)c2cc(S(=O)(=O)N(C)C)ccc2C)NC(=O)NC1C (stereo not given)
28	-44[16.7 µM]	CC(C)C#Cc1ccc2c(c1)O[C@@H](CN(C)Cc1cccnc1)[C@H](C)CN([C@H](C)CO)S2(=O)=O
-12	-24	CC1(C(=O)NS(=O)(=O)Cc2cccc(Cl)c2)CCN1C(=O)Cc1ccc(-c2ccccc2)cc1 (stereo not given)
-9	-2[16.7 µM]	COCC(=O)Nc1ccc2c(c1)C(=O)N(C)C[C@H](OC)[C@H](C)CN(C(C)=O)[C@H](C)CO2
8	1[16.7 µM]	CCC(=O)Nc1ccc2c(c1)C(=O)N(C)[C@H]1CC[C@@H](CC(=O)NCC3CCCCC3)O[C@H]1CO2
